High-throughput results: PubChem BioAssay, several laboratories
HSV replic up: increases HSV replication in cells; 220,000 compounds, 0.005% hits; HSV replication augmentation in cells, fold increase; AID 1956; maximum fold increase;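 active = peak rise of 1.5-fold or more in the series; tested in PC3 cells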;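 also: first round at 10 µM; read as green reporter fluorescence; hits show the peak of a series up to 25 µM; 1 = signal of infected wells without compound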
RGS16-Gao: modulates binding between human RGS16 and Galphao; O15492+P09471; bead-based flow cytometry RGS16-Galphao binding, fluorescence; actives lie on both sides; binding response (% of control), % at 10 µM; 220,000 compounds, 0.38% hits;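 active = below 25% or above 175%, edge rows of some plates excepted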;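 also: Galphao activated by GDP with aluminum fluoride before binding; 100% = wells without compound and 0% = beads without RGS; some results beyond the cut were filed as inactive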
Target sequence (O15492 whole entry, looked up): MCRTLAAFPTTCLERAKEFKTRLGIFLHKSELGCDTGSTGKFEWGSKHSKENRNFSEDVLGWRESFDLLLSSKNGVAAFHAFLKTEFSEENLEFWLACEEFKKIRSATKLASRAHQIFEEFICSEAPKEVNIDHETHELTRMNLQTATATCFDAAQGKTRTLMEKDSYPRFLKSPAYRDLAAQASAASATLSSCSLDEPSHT
Target sequence (P09471 whole entry, looked up): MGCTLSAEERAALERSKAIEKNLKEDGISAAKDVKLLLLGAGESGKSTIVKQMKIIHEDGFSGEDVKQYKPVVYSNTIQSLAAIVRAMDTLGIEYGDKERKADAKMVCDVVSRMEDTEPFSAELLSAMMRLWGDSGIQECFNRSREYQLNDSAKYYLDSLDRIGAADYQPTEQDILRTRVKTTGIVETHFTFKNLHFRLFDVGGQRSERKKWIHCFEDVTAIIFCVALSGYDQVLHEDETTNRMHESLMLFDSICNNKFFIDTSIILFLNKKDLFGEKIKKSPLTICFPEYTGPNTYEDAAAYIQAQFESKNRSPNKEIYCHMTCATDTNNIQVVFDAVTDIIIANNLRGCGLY
INS promoter inh: TRM-6 insulin promoter activity inhibition. AID 1273. TRM-6 cells (human fetal islet line), insulin promoter-eGFP reporter, imaging; reporter expression induced with tamoxifen. inhibition, % at 2 µM. 130,000 compounds, 0.9% hits;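 active = inhibition above the mean plus 3 SD, with well images judged a real hit on visual review, cut at about 60% in these data, passing the limit was not always enough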
GALR2 agonist: activates the human galanin receptor 2; O43603; GALR2-expressing cells, agonist activation read-out; activation, %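 (tested at 5 µM)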; 140,000 compounds, 0.48% hits; AID 803;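 active = above mean plus 3 SD of all compounds, about 5% in these data, not always enough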;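 also: 0% = vehicle buffer wells and 100% = reference agonist at full effect; tested in CHO reporter cells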
Target sequence (O43603 whole entry, looked up): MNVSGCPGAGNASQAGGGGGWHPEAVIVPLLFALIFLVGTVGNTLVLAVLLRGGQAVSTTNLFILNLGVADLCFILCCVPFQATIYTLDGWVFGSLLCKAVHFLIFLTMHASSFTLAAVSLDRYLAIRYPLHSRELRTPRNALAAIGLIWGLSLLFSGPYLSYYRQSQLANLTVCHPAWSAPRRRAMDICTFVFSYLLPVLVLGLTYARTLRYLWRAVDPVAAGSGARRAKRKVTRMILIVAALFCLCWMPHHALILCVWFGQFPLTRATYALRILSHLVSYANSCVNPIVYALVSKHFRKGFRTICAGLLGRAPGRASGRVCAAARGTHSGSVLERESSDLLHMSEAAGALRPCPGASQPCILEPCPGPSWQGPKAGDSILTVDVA
PKD1 kinase inh: inhibitors of human PKD1 kinase. Q15139. PKD1 kinase fluorescence polarization assay. inhibition, %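 (about 10 µM by stock and volumes)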. 200,000 compounds, 0.056% hits. AID 797;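 active = inhibition of 50% or more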;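 also: controls were vehicle for no effect and a reference inhibitor for full effect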
INS promoter inh cell count: also measured in INS promoter inh; calls as there; normalized cell count, %; measured here: cell count, toxicity; reference of the scale not given here;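 cells exposed to compound for 48 h; stained nuclei by imaging scaled within each plate; lower means fewer cells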
HSV replic up primary fold: second read-out of HSV replic up, no call of its own (marks repeat the call); fold increase; compound at 10 µM; measured here: primary screen fold increase 10 uM; tested in PC3 cells;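 GFP signal in the first replicate; 1 = infected wells without compound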
An asterisk follows results filed as active; i = inactive; · = not tested or not shown.

SMILES	HSV replic up	HSV replic up primary fold	RGS16-Gao	INS promoter inh	INS promoter inh cell count	GALR2 agonist	PKD1 kinase inh
COc1cc(CNc2ccc(N3CCCC3)cc2)ccc1OCc1ccccc1F	i	0.88	59	11	78	-1.6	5
Cc1ccccc1N=Nc1c(C)[nH]n(-c2ccccc2)c1=O	i	0.97	94	·	·	·	-2
CCN(CC)CC(=O)Nc1nn(-c2ccccc2)nc1C(N)=O	i	0.84	109	27	143	-0.8	-9
CCCN(CC(=O)Nc1ccc(C(N)=O)cc1)CC(=O)Nc1cc(Cl)ccc1Cl	i	0.78	94	6	108	·	2
O=C(c1ccco1)N1CCN(C(c2ccccc2Cl)c2nnnn2Cc2cccs2)CC1 (stereo not given)	i	0.95	100	-30	97	-0.7	-1
CCCCNC(=O)c1onc(CCl)c1C(=O)OC	i	0.99	106	·	·	-1.0	-3
COC(=O)Cc1c(C)[nH]n(-c2cc(Cl)cc(Cl)c2)c1=O	i	0.95	95	·	·	·	-6
Cc1ccc(CNS(=O)(=O)NCc2ccc(Cl)cc2)cc1	i	1	96	·	·	·	-2
FC(F)Sc1ccc(NC(=S)NC2CCCCC2)cc1	i	0.95	93	0	158	-1.7	0
S=C1NC(c2ccccc2)N2C(=S)NC(c3ccccc3)N12 (stereo not given)	i	0.88	93	4	188	12*	-5
COc1ccc(C(=O)NCC(c2cccnc2)N2CCN(c3ccccc3OC)CC2)cc1OC (stereo not given)	·	·	107	·	·	-0.7	4
COc1cc(C(=O)/C=C/Nc2ccc(NC(C)=O)cc2)cc(OC)c1OC	i	0.91	80	-6	156	-0.6	-6
O=C(Nc1nnc(COc2ccc(F)cc2)s1)c1cccs1	i	1	260	-13	136	-1.8	-7
Cn1c(CNC(=O)c2ccco2)nnc1SCC(=O)c1ccccc1	i	0.83	105	·	·	·	-7
CCCN1C(=O)/C(=C2/C=Cc3ccccc3N2CC)SC1=S	i	0.9	95	50	162	·	4
COc1ccc(NC(=O)c2c(NC(=O)CNCC(C)C)sc3c2CCC3)c(OC)c1	i	0.98	104	·	·	·	4
CCOC(=O)c1ccc(N2CCN(c3ccccc3F)CC2)c(NC(=O)Nc2ccccc2)c1	i	0.91	33	32	34	-1.3	-8
O=C(N/N=C/c1ccncc1)c1nc2ccccc2c(=O)[nH]1	i	1.1	102	·	·	·	·
Cc1ccc(NC(=O)c2noc3c2CC(C(C)(C)C)CC3)cc1 (stereo not given)	i	0.91	104	8	69	-1.0	-4
CCN(CC)C(=O)Cn1cc(C(=O)C(=O)N2CCc3ccccc32)c2ccccc21	i	1.1	103	·	·	·	1
Cc1cc(NC(=O)CC2CCCC2)n(-c2nc3ccccc3[nH]2)n1	i	0.79	99	3	107	0.0	-9
Cc1ccc(-c2nc(CS(=O)CC(=O)NCCN3CCCC3)c(C)o2)cc1 (stereo not given)	i	0.76	106	·	·	-3.1	-14
O=c1c(F)cn(C2CCCO2)c(=O)n1Cc1ccccc1Cl (stereo not given)	i	1	103	-283	79	-2.4	-8
c1ccc(-c2nn3c(C4CCCCC4)nnc3s2)cc1	i	1	98	·	·	0.4	4
O=C(NCc1ccccc1)c1ccc(CS(=O)(=O)c2ccccc2)o1	i	0.95	95	15	105	-1.8	6
CCOC(=O)C1CCCN(Cc2cn[nH]c2-c2ccc(F)cc2F)C1 (stereo not given)	i	1	112	·	·	·	2
NS(=O)(=O)c1ccc(NC(=O)CN2CCCc3ccccc32)cc1	i	1	110	·	·	·	·
CCc1ccc(-c2nnn(CCC(=O)OC)n2)cc1	i	1	100	6	124	-1.3	-2
O=c1c2ccccc2nnn1Cc1ccc(F)cc1	i	1.1	92	·	·	·	1
COC(=O)c1cc(COc2ccc3oc(C)c(C(=O)OC)c3c2)c(C)o1	i	0.85	102	·	·	-1.0	9
NS(=O)(=O)c1ccc(N/N=C/c2ccc(O)cc2O)c([N+](=O)[O-])c1	i	0.55	101	·	·	·	·
COCCNC(=O)/C(C#N)=C/c1cccs1	i	0.94	108	·	·	·	·
Cc1cccc(C)c1NC(=O)C(NC=O)c1ccccc1Cl (stereo not given)	i	0.81	99	11	56	-0.7	-10
CS(=O)(=O)N1CCN(C(=O)Cc2cccs2)CC1	i	0.87	104	22	92	-0.3	-9
COc1ccc(OCC(O)CNCCNc2nccc(C(F)(F)F)n2)cc1 (stereo not given)	i	0.88	125	·	·	·	·
N#Cc1c(C(F)(F)F)cc(-c2cccs2)nc1SCc1cccnc1	i	0.83	104	-43	119	0.0	-1
COc1ccc2[nH]c(=O)c(CN(Cc3cccs3)Cc3nnnn3C(C)(C)C)cc2c1	i	1	107	-53	67	-0.2	-2
CC(C)CC(NS(=O)(=O)c1ccc2c(c1)oc(=O)n2C)C(=O)NC1CCCc2ccccc21 (stereo not given)	·	·	102	·	·	-1.0	-3
O=C(COc1ccc([N+](=O)[O-])cc1)Nc1cccnc1	i	1.1	120	·	·	·	-3
CCS(=O)(=O)c1ccc2c(c1)NC(=O)C(CCCl)O2 (stereo not given)	i	1	103	·	·	·	1
O=C(/C=C/c1cc([N+](=O)[O-])ccc1OC(F)F)NCc1ccc(F)cc1	i	0.92	105	19	96	-0.8	-4
CN=C(c1ccco1)n1c(=S)nc(-c2ccco2)n(C)c1=S	i	0.97	96	·	·	-2.4	0
Cc1cc(/C=C(\C#N)C(=O)Nc2ccc(F)cc2)c(C)n1-c1ccc(N2CCOCC2)c([N+](=O)[O-])c1	i	1.3	97	11	66	0.5	2
COC(=O)C1CSc2[nH]c(=O)sc2C1c1ccccc1 (stereo not given)	i	1.1	99	-10	109	-1.8	-6
COc1ccc(C2CC(C)=C(C#N)S(=O)(=O)C2C#N)cc1 (stereo not given)	i	1.1	97	·	·	·	·
CCOc1ccccc1/C=N/Nc1ccccc1[N+](=O)[O-]	i	0.91	98	42	58	-1.0	-3
Cc1cc(O)c(C(C)C)cc1NS(=O)(=O)c1ccccc1	i	1.1	102	35	104	-1.3	-17
CN(CC(=O)NC(=O)NCc1ccco1)CC(=O)Nc1ccccc1Cl	i	1.1	102	·	·	·	·
Cn1cnnc1SCc1nc(N)nc(Nc2ccccc2)n1	i	1	103	-49	183	-1.3	-5
Cc1cc2nc(-c3ccc(SCc4ccc(C(=O)O)cc4)nc3)[nH]c2cc1C	i	0.75	91	·	·	·	-3

More compounds:
SMILES	HSV replic up	HSV replic up primary fold	RGS16-Gao	INS promoter inh	INS promoter inh cell count	GALR2 agonist	PKD1 kinase inh
Cc1ccc(COc2ccc(/C=N/NC(=O)c3ccc(CN4CCOCC4)cc3)cc2)cc1	i	0.9	96	-9	149	0.6	-8
CN=C1S/C(=C\c2ccc(N3CCCC3)c(F)c2)C(=O)N1C	i	1.1	105	·	·	·	-3
c1ccc(C2CC(c3cccs3)n3nnnc3N2)cc1 (stereo not given)	i	1.1	101	14	143	-4.9	-11
CCOC(=O)c1ccccc1NC(=O)CSc1nnc(COc2ccccc2)n1CC	i	0.92	101	·	·	-2.2	-11
COCCNS(=O)(=O)c1ccc2c(c1)n(C)c(=O)n2C	i	0.75	101	·	·	-2.9	-3
COc1ccc(C(=O)c2ccccc2)c2c(O)ccc(C(=O)c3ccccc3)c12	i	0.87	98	-20	150	0.5	-12
O=C(/C=C/c1ccc(F)cc1)NC(=S)NNC(=O)c1cnccn1	i	0.73	99	·	·	·	·
O=C1/C(=C/c2ccccn2)COc2ccccc21	i	1.1	107	29	92	·	-5
O=Nc1c2cc(-c3ccccc3)[nH]nc-2c2ccccc12	i	0.85	102	-62	79	·	-1
CN(/N=C/c1cccnc1)c1cnn(-c2ccc(F)c(Cl)c2)c(=O)c1Cl	i	0.99	89	3	82	-0.1	3
O=C(CC1SC(=Nc2ccc(OC(F)F)cc2)N(CCN2CCOCC2)C1=O)Nc1ccccc1 (stereo not given)	i	0.9	102	·	·	·	·
COC(=O)c1ccc(/C=N/Nc2nc3ccccc3[nH]2)cc1	i	0.93	102	·	·	·	-2
CC(C)(C)C1CCC2(CC1)SCC(=O)N2c1ccccc1 (stereo not given)	i	1.1	102	51	97	-1.9	1
CC12CCC(C(=O)Nc3nc4ccc(Br)cc4s3)(OC1=O)C2(C)C (stereo not given)	i	1	109	·	·	·	2
Cc1nn(-c2ccccc2)nc1CNC(=O)c1ncoc1-c1ccccc1	i	1.1	92	·	·	·	·
c1nc(NCC2(N3CCOCC3)CCCCC2)c2ccsc2n1	i	1	106	15	113	-1.2	0
COc1ccc(OC)c(N=c2ssnc2Cl)c1	i	0.9	48	39	27	0.2	-4
CCNC(=O)NS(=O)(=O)c1cnccc1Nc1cccc(Cl)c1	i	1	31	23	71	-1.1	-6
CS(=O)(=O)N1N=C(c2ccccc2)CC1c1cccs1 (stereo not given)	i	1.1	102	-5	223	0.4	-8
O=C(CCn1c(=O)c2ccccc2n(Cc2cccc([N+](=O)[O-])c2)c1=O)N1CCc2ccccc2C1	i	0.95	104	-44	122	-1.2	-11
Cc1onc(-c2c(Cl)cccc2Cl)c1C(=O)O/N=C(\C#N)c1ccccc1	i	0.95	103	·	·	·	·
Cc1ccccc1C1=N/C(=C/c2cccs2)C(=O)O1	i	0.84	100	31	89	·	-4
Fc1ccc(NCc2n[nH]c(=S)n2Cc2ccccc2)cc1	i	0.91	102	0	170	·	-8
CC(C)C(=O)NC(=S)Nc1ccc(S(=O)(=O)N(C)Cc2ccccc2)cc1	i	1	103	0	108	-1.0	2
CCc1nc(N2CCCC(C)C2)c2oc3ccccc3c2n1 (stereo not given)	i	1.2	104	·	·	0.8	-5
COC(=O)c1c(C)cc(OC(C)=O)c(C)c1OC(C)=O	i	0.97	104	7	80	0.4	-10
N#Cc1nnn(-c2cc(Cl)cc(Cl)c2)c1N	i	1.1	91	·	·	·	·
O=C(N1CCCC1)n1c(Cc2ccccc2)nc2ccccc21	i	1	104	21	59	-0.4	-5
Cc1[nH]n(-c2ccc(Cl)cc2)c(=O)c1/C=N/n1c(C)nc2ccccc2c1=O	i	1	115	-150	113	-0.8	6
CCOc1cc(C(=S)N2CCOCC2)ccc1OC	i	0.96	271	57	131	-2.2	1
COc1cccc(Oc2nc3ncn(Cc4ccccc4)c3c(=O)n2C)c1	i	0.84	109	15	128	-3.0	-2
COc1cccc(CNC(=O)C2CCC(CNc3c(N4CCC(C)CC4)c(=O)c3=O)CC2)c1 (stereo not given)	i	0.84	123	·	·	·	·
O=C(N/N=C(\Cc1ncc[nH]1)c1ccccc1)c1ccccc1	i	0.9	102	0	87	·	8
CC(=O)NS(=O)(=O)c1ccc(NC(=O)c2ccccc2F)cc1	i	0.9	98	-8	134	0.2	-11
Cc1cccc(NC(=S)NCCN2CCOCC2)c1C	i	0.95	107	6	121	0.4	-9
COc1ccccc1CNC(=O)c1ccc(OCc2c(C)noc2C)c(OC)c1	i	0.8	107	0	154	-1.7	-13
O=C(NCc1cccc(Cl)c1)c1ccc2c(c1)OCO2	i	0.97	103	54	107	-1.4	-5
Cc1ccccc1NS(=O)(=O)c1cc(C(=O)Nc2cccc([N+](=O)[O-])c2)ccc1C	i	0.76	119	·	·	-1.0	-4
Nn1c(SCC(=O)Nc2ccc(F)cc2)nnc1C1CCCCC1	i	0.95	101	·	·	-0.3	1
O=C(NCc1ccco1)c1ccc(Br)s1	i	1	111	19	122	1.1	-9
Cc1ccc(Nc2nc(OC(C(F)(F)F)C(F)(F)F)nc(N3CCOCC3)n2)cc1	i	0.77	101	29	109	-2.5	-5
N#CCC(=O)Nc1sc2c(c1C(N)=O)CCCC2	i	0.83	108	·	·	-2.6	1
